TRPML1 inh: blocks the human TRPML1 channel; activity change, negative = inhibition, % (test concentration not listed); Q9GZU1; hit rate 0.02% among 390,000; TRPML1-inducible cells, Ca2+ dye fluorescence, FDSS; hits give low values; inhibition of EC80 agonist-evoked calcium signal; in the data active means activity change below about -50%; inconclusive means about -30% to -50%; inactive means above about -30%;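 further: stimulus is agonist 54-4 at its EC80 concentration; on the % scale 0 is the no-effect control and ±100 the full control effect; compound concentration not given in the record; the text of the record puts the active cut at -80%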
Target sequence (Q9GZU1 whole entry, looked up): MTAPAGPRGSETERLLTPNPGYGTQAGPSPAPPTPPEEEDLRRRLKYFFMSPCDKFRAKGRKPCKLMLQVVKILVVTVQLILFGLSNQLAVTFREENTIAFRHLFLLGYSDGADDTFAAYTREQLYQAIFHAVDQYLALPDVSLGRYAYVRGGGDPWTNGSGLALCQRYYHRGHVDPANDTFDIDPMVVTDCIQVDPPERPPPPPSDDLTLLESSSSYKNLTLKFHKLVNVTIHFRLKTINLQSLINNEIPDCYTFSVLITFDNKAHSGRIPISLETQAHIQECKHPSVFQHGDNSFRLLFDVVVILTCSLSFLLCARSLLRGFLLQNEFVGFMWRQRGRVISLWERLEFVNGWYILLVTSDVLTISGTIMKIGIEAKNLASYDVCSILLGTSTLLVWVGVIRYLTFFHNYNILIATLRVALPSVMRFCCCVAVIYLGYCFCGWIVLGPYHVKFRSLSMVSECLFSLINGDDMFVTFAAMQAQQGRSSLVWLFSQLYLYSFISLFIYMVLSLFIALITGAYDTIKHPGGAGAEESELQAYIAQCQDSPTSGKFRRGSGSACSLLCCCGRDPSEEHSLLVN
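Calcium fluorescence in TRPML1-DL cells induced overnight with Tet: a 110 s read after compound pin addition, then a 110 s antagonist read after challenge with 54-4 at 4 uM final (EC80).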
CtBP-E1A blk: inhibitors of CtBP/E1A interaction. AlphaScreen GST-E1A/His-CtBP binding, 1536-well; hits give low values; control for the full effect not named in the record. activity change, % (test concentration not listed). hit rate 0.49% among 340,000; in the data active means activity change below about -65%; inconclusive means about -30% to -65%; inactive means above about -30%; further: on the % scale 0 is the no-effect control and ±100 the full control effect; compound concentration not given in the record
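Homogeneous bead-based format: GST-tagged E1A captured on glutathione donor beads, His-tagged CtBP on nickel acceptor beads; compounds precede bead addition by 2 h at 37 °C.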
TRPV1 potentiator: enhances activation of the human vanilloid receptor TRPV1 | Q8NER1 | TRPV1-expressing cells, Fluo-8 calcium influx, capsaicin EC20 potentiation; host cell line not named in the record; control for the full effect not named in the record | hit rate 0.02% among 320,000 | potentiation, % at 8.33 µM; active means potentiation above 80%; inconclusive means 30% to 80%; inactive means below 30%; further: 0% is about no effect
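TRPV1-expressing cells were cultured overnight at 35.5C and loaded with Fluo-8 calcium dye for 40 to 90 min at room temperature. After a 10 s baseline, compound was added and calcium influx was read kinetically for 3 min (ex 480/em 520 nm).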
Six1-Eya2 blk: blocks human Six1 binding to Eya2 | AID 651725 | AlphaScreen GST-Six1/His-Eya2 binding, biochemical; hits give low values; control for the full effect not named in the record | hit rate 0.56% among 360,000 | activity change, % (no concentration beside the values) | Q15475+O00167; in the data active = activity change below about -65%; inconclusive = about -30% to -65%; inactive = above about -30%; further: on the % scale 0 is the no-effect control and ±100 the full control effect; compound concentration not given in the record
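AlphaScreen with GST-Six1 and His-Eya2 (5X mix: 250 nM and 500 nM), glutathione donor and nickel acceptor beads; buffer 50 mM Tris pH 8.0, 300 mM NaCl, 1 mM TCEP; 1 h at 37 C in the dark.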
TRPML1 ag: activates the human TRPML1 channel; Q9GZU1; TRPML1-expressing cells, Ca2+ dye fluorescence, FDSS; host cell line not named in the record; reference of the full effect not given here; activation, % (test concentration not listed); hit rate 0.12% among 410,000; AID 624414; in the data active = activation above about 50%; inconclusive = about 30% to 50%; inactive = below about 30%; further: 0% is about no effect; the text of the record puts the active cut at 80%
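Calcium fluorescence on an FDSS kinetic reader gave the read-out. Tet-induced TRPML1-DL cells were plated overnight, dye-loaded (Ca8 with quencher, 45-90 min, room temperature, dark), then read 110 s after compound addition, and again 110 s after 4uM final 54-4 (EC80).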
D2 PAM: potentiates the human D2 dopamine receptor allosterically; P14416; DiscoveRx D2 beta-arrestin cells, luminescence, 90 min; 100% = 57 uM dopamine signal; potentiation, % (no concentration beside the values); hit rate 0.23% among 360,000; active = potentiation of 50% or more; inconclusive = 30% to 50%; inactive = 30% or less;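 further: compound concentration not given in the record; tested on top of an EC20 dose of dopamine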
Target sequence (P14416 whole entry, looked up): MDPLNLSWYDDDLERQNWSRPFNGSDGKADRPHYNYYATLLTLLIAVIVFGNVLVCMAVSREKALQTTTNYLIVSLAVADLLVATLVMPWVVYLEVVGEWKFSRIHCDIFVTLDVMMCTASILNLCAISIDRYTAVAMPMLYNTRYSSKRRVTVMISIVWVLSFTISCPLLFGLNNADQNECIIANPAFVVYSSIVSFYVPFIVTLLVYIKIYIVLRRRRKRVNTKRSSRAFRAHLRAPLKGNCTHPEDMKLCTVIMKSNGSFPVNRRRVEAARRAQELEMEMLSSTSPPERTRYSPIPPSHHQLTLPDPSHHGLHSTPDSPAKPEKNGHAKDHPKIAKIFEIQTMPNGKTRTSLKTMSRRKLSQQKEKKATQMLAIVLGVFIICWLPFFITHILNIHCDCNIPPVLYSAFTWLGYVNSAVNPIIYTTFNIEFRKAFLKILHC
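PathHunter D2 cells, attached overnight at 37 deg C, received compound in DMSO plus dopamine at EC20 (50 nM final) for 90 min at 37 deg C. Beta-arrestin recruitment was read as luminescence after 1 h with detection reagent at ambient temperature.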
Numbers without * were called inactive; ? = inconclusive; . = not tested or not shown.

SMILES	TRPML1 inh	CtBP-E1A blk	TRPV1 potentiator	Six1-Eya2 blk	TRPML1 ag	D2 PAM
Cc1cc(C[n+]2ncsc2N)c2ncccc2c1	13	3	11	2	-0.2	-21
O=C(Nc1cc([N+](=O)[O-])ccc1O)c1cccc(C(=O)Nc2cc([N+](=O)[O-])ccc2O)c1	-4	.	20	-23	-0.7	-8
CC1(c2ccccc2)NC(=O)N(CC(=O)N(c2ccccc2)C2CCS(=O)(=O)C2)C1=O (stereo unspecified)	6	13	.	-7	0.2	-2
O=C(c1ccc2c(c1)OCCO2)N1CCCC(CNS(=O)(=O)c2cccs2)C1 (stereo unspecified)	9	-1	-1	5	1.1	-9
Cc1cc(C)cc(COn2ccnc2)c1	2	4	-6	8	0.4	-2
CCOCCC(=O)Nc1ccc2c(c1)c(=O)n(C)n2CC=C(C)C	.	-14	.	-20	-0.2	-3
COc1cc(NC(=O)c2ccc(C)cc2C)ccc1NC(=O)c1cc2ccccc2o1	14	-1	-9	5	0.6	-4
CC[n+]1ccc(C)c2cc(S(=O)C(F)(F)F)ccc21 (stereo unspecified)	14	3	-1	4	-0.5	-13
Cc1cc(NC(=O)CSCC(=O)N(C)Cc2ccc(Cl)c(Cl)c2)no1	13	-1	-6	2	-0.6	-10
COc1cc(/C=C(/C#N)C(=O)Nc2cc(C(F)(F)F)ccc2Cl)ccc1OCC(=O)Nc1cccc(C(F)(F)F)c1	13	-6	.	-1	1.7	-4
Cc1cccc(C)c1Nc1nnc(SCC(=O)NCc2ccco2)s1	-2	-4	?	-2	-0.5	-5
COc1ccc(C2=NN(C(=O)CCC(=O)O)C(c3ccc([N+](=O)[O-])cc3)C2)cc1 (stereo unspecified)	-12	2	3	7	0.4	-1
CC(C(=O)O)N1C(=O)c2cccc3cccc1c23 (stereo unspecified)	3	0	11	7	-0.1	7
C[C@@H]1C=C(C(=O)NCc2ccccc2)O[C@H](OCc2ccc(CO)cc2)C1	-12	8	18	-2	-0.1	-6
Cc1ccc(S(=O)(=O)NC2CCCCCCC2)cc1	4	4	8	-7	-0.3	-1
CCOc1ccc(-n2cccc2C=O)cc1	-28	-4	-32	5	0.6	-5
COc1ccccc1N(C)S(=O)(=O)c1ccc(C(=O)OCC(=O)NCCC2=CCCCC2)cc1	16	10	-3	1	1.2	-14
COc1ccccc1CNC(=O)CCNC(=O)Cn1cnc2ccccc2c1=O	16	2	7	2	-0.7	24
CN1C(=O)C(CC(=O)Nc2ccc(F)cc2)N(NC(=O)c2cccc(F)c2)C1=S (stereo unspecified)	13	0	-5	0	0.4	-12
O=C(CN1CCOc2ccccc21)NCc1ccco1	65	-2	.	-2	0.7	-1
CCOc1ccc2nc(NC(=O)CS(=O)(=O)c3ccc(C)cc3)sc2c1	-13	-14	3	1	2.4	?
CCOc1ncccc1C(=O)OCC(=O)Nc1ccc(S(=O)(=O)N2CCCC2)cc1	-27	-14	7	-10	0.7	-2
COc1ccc(N(CC(=O)NC2CCCC2)C(=O)c2ccc(N3CCCCC3)nc2)cc1	-17	0	-9	0	0.0	9
CC1CCN(Cc2nnnn2CCCC(=O)N(C)C(C)c2ccccn2)CC1 (stereo unspecified)	12	-2	-6	7	0.1	-13
CCn1nc(C)c(CN2CCC(C(=O)Nc3cccc(-c4cccc(Cl)c4)c3)CC2)c1C	38	.	7	20	11	-3
CSCCOC(=O)C1=C(C)NC(=O)NC1c1ccc2c(c1)OCO2 (stereo unspecified)	6	4	1	-2	0.2	0
Fc1ccccc1-c1nc2ccccc2[nH]1	-2	.	-5	6	0.4	-13
CCC(C)N1CC(=O)N2Cc3[nH]c4ccccc4c3C[C@H]2C1=O (stereo partly specified)	-7	.	-10	-5	2.3	-2
CCN(CC)CCN(C(=O)/C=C/c1cccs1)c1nc2ccc(C)cc2s1	82	.	18	14	3.6	-5
CC(C(=O)N(C)CC(=O)Nc1ccccc1C(F)(F)F)N1C(=O)c2ccccc2C1=O (stereo unspecified)	-22	.	-3	11	-1.2	-2
COc1ccc(/C=N/NC(=O)CSc2ccccc2)cc1OC	-2	-3	-1	2	0.3	-14
COCCN(C(=O)c1ccc(N2C(=O)c3ccccc3C2=O)cc1)c1c(N)n(CC(C)C)c(=O)[nH]c1=O	24	3	-3	3	0.2	8
CCOc1cc(Br)c(CC(=O)O)cc1OCC	-18	0	-5	-1	1.2	-10
COc1ccc(S(=O)(=O)NCCN2CCOCC2)c(C)c1C	2	2	-25	-1	-0.7	-6
CCOCCCN(C(=O)Cn1nnc(-c2ccc(OC)c(OC)c2)n1)C(C(=O)NCC1CCCO1)c1ccc(F)cc1 (stereo unspecified)	2	1	-5	22	-0.1	-2
COc1ccc(-c2cc([C@H]3[C@H]4C=CC[C@@H](C)[C@@H]4C(=O)N3Cc3ccccc3)ccc2F)cc1OC	68	.	24	0	1.7	-5
O=C(Nc1ccccc1F)Nc1ccccc1Br	-5	.	-6	3	0.9	-10
Cn1c(NC(=O)c2cccc(C(F)(F)F)c2)cc(=O)n(C)c1=O	16	3	-3	-3	-0.9	0
CN(CC(=O)O/N=C(\N)c1cccc([N+](=O)[O-])c1)S(=O)(=O)c1ccccc1	-3	-4	4	-6	0.2	8
CCCc1nc2c([nH]1)c(=O)n(C)c(=O)n2C	-9	0	5	5	0.1	3
C#CCN(C[C@@H]1[C@@H](OC(=O)NCc2ccccc2F)[C@@H](OC(=O)NCc2ccccc2F)Cn2c(=O)n(CCCCCC)c(=O)n21)S(=O)(=O)c1ccc(C)cc1	9	-4	.	-4	0.8	-3
O=C(CN1CCCC1c1ccc2c(c1)OCCO2)NC(=O)Nc1ccccc1 (stereo unspecified)	-9	.	-7	-6	-0.5	-7
Cc1ccc(-c2csc3ncnc(-n4cnc5ccccc54)c23)cc1	33	7	-21	11	-0.4	-18
Cc1ccc(C2Nc3ccccc3NC3=C2C(=O)CC(C)(C)C3)c(O)c1 (stereo unspecified)	18	-18	7	7	0.2	-2
COc1cccc(NC(=O)Nc2nnc(CC(=O)NCc3ccccc3)s2)c1	1	.	1	3	-0.6	-10
CSCCC(C(=O)Nc1c(C)cccc1C)N1CCN(c2ccc(C(F)(F)F)cn2)CC1 (stereo unspecified)	.	-2	.	-11	-0.5	-1
CCCCCOC(=O)Nc1nnc(CCCCC)s1	3	6	-4	4	3.0	1
COCCCNC(=S)N1CCN(c2nc(-c3ccc(F)cc3)cs2)CC1	-8	-15	-5	-17	1.3	-2
O=C(/C=C/c1ccco1)Nc1ccc(Cl)c(S(=O)(=O)N2CCOCC2)c1	1	.	4	-20	0.2	-16
COc1cc(-c2nc3cc(C)ccn3c2NC2CCCCC2)ccc1-c1ccc(C(C)=O)cc1	3	-18	3	-16	0.8	-17
Cc1ccc2c(Cl)c(C(=O)NCC(c3ccco3)N3CCCC3)sc2c1 (stereo unspecified)	-5	.	?	0	0.7	-12
COc1ccc(OC)c(NC(=O)Nc2nc(C(N)C(C)C)cs2)c1 (stereo unspecified)	.	-15	.	-21	-0.5	-13
N#Cc1ccc(CSc2nnc(NC(=O)c3ccc(=O)[nH]c3)s2)cc1	27	2	-4	0	1.3	-2
CC(=O)NN(O)C1N(C)C(=O)N(Cc2ccccc2)C1(C)C (stereo unspecified)	21	6	.	5	-0.6	-1
Cc1c(C(=O)O)cccc1-n1c(C)cc(C=O)c1C	5	0	-1	-14	0.7	-2
OC[C@@H]1CN(C2CCCC2)C[C@H](n2cnc3c(NC4CC4)ncnc32)O1	.	10	.	0	-0.1	5
COc1ccc(Cc2noc(CN(C)Cc3ccc(-n4cccn4)cc3)n2)cc1OC	-8	.	-17	5	1.3	2
CC(NC(=O)c1ccco1)C(=O)N1CCN(c2ccccc2)CC1 (stereo unspecified)	40	9	11	4	0.4	9
Cc1onc(-c2ccccc2Cl)c1C(=O)OCC(=O)c1c(N)n(C)c(=O)n(C)c1=O	-6	2	-13	-12	0.3	5
CNC(=O)COC(=O)c1ccc(Cl)c(S(=O)(=O)N2CCCC2)c1	-8	3	-10	4	-0.5	-3

A different layout for part of the listing above:
compound,TRPML1 inh,CtBP-E1A blk,TRPV1 potentiator,Six1-Eya2 blk,TRPML1 ag,D2 PAM
O=C(/C=C/c1ccco1)Nc1ccc(Cl)c(S(=O)(=O)N2CCOCC2)c1,1,.,4,-20,0.2,-16
COc1cc(-c2nc3cc(C)ccn3c2NC2CCCCC2)ccc1-c1ccc(C(C)=O)cc1,3,-18,3,-16,0.8,-17
Cc1ccc2c(Cl)c(C(=O)NCC(c3ccco3)N3CCCC3)sc2c1 (stereo unspecified),-5,.,?,0,0.7,-12
COc1ccc(OC)c(NC(=O)Nc2nc(C(N)C(C)C)cs2)c1 (stereo unspecified),.,-15,.,-21,-0.5,-13
N#Cc1ccc(CSc2nnc(NC(=O)c3ccc(=O)[nH]c3)s2)cc1,27,2,-4,0,1.3,-2
CC(=O)NN(O)C1N(C)C(=O)N(Cc2ccccc2)C1(C)C (stereo unspecified),21,6,.,5,-0.6,-1
Cc1c(C(=O)O)cccc1-n1c(C)cc(C=O)c1C,5,0,-1,-14,0.7,-2
OC[C@@H]1CN(C2CCCC2)C[C@H](n2cnc3c(NC4CC4)ncnc32)O1,.,10,.,0,-0.1,5
COc1ccc(Cc2noc(CN(C)Cc3ccc(-n4cccn4)cc3)n2)cc1OC,-8,.,-17,5,1.3,2
CC(NC(=O)c1ccco1)C(=O)N1CCN(c2ccccc2)CC1 (stereo unspecified),40,9,11,4,0.4,9
Cc1onc(-c2ccccc2Cl)c1C(=O)OCC(=O)c1c(N)n(C)c(=O)n(C)c1=O,-6,2,-13,-12,0.3,5
CNC(=O)COC(=O)c1ccc(Cl)c(S(=O)(=O)N2CCCC2)c1,-8,3,-10,4,-0.5,-3

Following part:
SMILES	TRPML1 inh	CtBP-E1A blk	TRPV1 potentiator	Six1-Eya2 blk	TRPML1 ag	D2 PAM
Cc1ccc(CNC(=O)C(=O)NCC2OCCN2S(=O)(=O)c2ccc3c(c2)OCCO3)cc1 (stereo unspecified)	-3	-14	4	9	-0.1	-7
Clc1cccc(CSC2=NCCCN2)c1	-2	-6	-6	11	0.2	8
Cc1ccc(NCCC(=O)c2ccc(Cl)cc2)cc1C	-13	-6	-23	-14	0.3	5
C=CC[C@@H](CC(=O)N[C@@H](CO)Cc1ccccc1)C(=O)NC[C@H](OC(=O)[C@@H](CC=C)Cc1ccc(F)cc1)c1ccccc1	-1	2	.	2	-0.1	-1
O=S(=O)(NCC1CCCO1)c1ccc(-c2ccc(Cl)cc2)cc1 (stereo unspecified)	10	3	-5	0	-0.6	-2
Cn1c(=O)n(C)c2cc(NC(=O)C(F)(F)F)ccc21	1	-8	0	3	-0.1	-4
